Screens from PubChem.
Beta apoptosis = blocks beta cell apoptosis; protection from apoptosis, % (test concentration not listed); INS-1E cytokine-induced death, ATP luminescence, 48 h; percent of positive-control rescue, neutral wells zero; hit rate 0.8% among 300,000;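 active means all replicates at 75% or more, or half of them and the mean; inconclusive means half reach 75% but not the mean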;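 further: 0% = cytokine-treated negative control wells and 100% = positive control rescue; higher means more ATP so stronger rescue from cytokine killing; wells of about 40 µL received 100 nL stock; the first replicate is given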
AF4-AF9 inh = inhibitors of human MLL-AF4/AF9 interaction. AlphaScreen, biotin-AF4 peptide binding to FLAG-AF9. inhibition, % at 10 µM. hit rate 0.47% among 350,000. AID 651704;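 active means every replicate reaching a set inhibition limit, whatever the replicate mean, cut at about 25% in these data; inconclusive means mean inhibition reaches that limit but some replicates miss it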;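 further: 0% = plate neutral control median and 100% = total signal loss; the record names both 10 and 1 µM as test concentration; the first replicate is given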
Target sequence (P42568 whole entry, looked up): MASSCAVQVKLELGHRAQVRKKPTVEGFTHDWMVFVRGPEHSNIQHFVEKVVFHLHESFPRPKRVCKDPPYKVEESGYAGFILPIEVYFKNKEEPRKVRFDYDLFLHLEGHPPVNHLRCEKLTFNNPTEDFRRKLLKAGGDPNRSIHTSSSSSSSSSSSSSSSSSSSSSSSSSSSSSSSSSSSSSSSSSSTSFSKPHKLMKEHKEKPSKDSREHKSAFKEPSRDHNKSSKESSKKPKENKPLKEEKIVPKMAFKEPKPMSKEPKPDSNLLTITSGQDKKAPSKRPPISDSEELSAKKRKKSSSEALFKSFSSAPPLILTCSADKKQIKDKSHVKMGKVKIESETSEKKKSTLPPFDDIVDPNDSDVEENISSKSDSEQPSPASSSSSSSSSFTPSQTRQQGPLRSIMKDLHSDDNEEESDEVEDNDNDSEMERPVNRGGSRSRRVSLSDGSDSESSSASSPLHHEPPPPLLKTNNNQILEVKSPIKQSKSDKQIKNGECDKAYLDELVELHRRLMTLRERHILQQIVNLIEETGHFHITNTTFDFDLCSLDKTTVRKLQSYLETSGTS
A1 inh = inhibitors of the anti-apoptotic protein A1, read as caspase activation | MEF A1-2A-BIM cells, Caspase-Glo 3/7 luminescence, 3 h; percent of clofoctol response, vehicle zero | caspase activation, % (test concentration not listed) | hit rate 0.066% among 330,000;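 active means over half of replicate activation scores above 10%, or exactly half above 10 with the replicate mean above 10; inconclusive means replicate mean below 10 yet half the replicates above 10; inactive means over half of replicates below 10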;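 further: wells of about 30 µL received 50 nL stock; many hits fall short of the cut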
Vif A3G = HIV-1 Vif–A3G interaction blockers – biochemical, TR-FRET, GST-Vif 1-94, biotin-A3G peptide, dose response retest, primary screen (AID 1117319). TR-FRET GST-Vif / biotin-A3G peptide binding; higher % means a stronger effect; test concentration not given here; strong numbers were not always called active. one-dose inhibition, %; IC50 in µM for titrated hits. hit rate 0.57% among 260,000;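 active means above the screen mean plus three standard deviations and confirmed in dose response; inconclusive means results disagree or hit not tested in dose response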;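 further: Vif residues 1-94 fused to GST binding biotinylated APOBEC3G peptide 110-148; 0% = full assay without inhibitor and 100% = GST in place of GST-Vif; retest series ran down from 100 µM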
Ecoli rRNA inh = inhibits bacterial ribosomal RNA function over humanized ribosomes. E. coli WT GFP vs humanized-ribosome RFP mutants, fluorescence, 24 h; active compounds read low; DMSO median 0, no signal -100. AID 720706. hit rate 1.6% among 350,000. GFP signal change (wild-type ribosome), % (concentration not given with the values);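 active means significant combined selectivity score with lowered wild-type GFP, culture density cut under 30%, mutant RFP and density less affected; inactive means any of these conditions unmet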; further: one replicate is shown; some compounds called inactive have numbers as strong as hits
Calb FLC = C. albicans growth modulation with fluconazole; growth inhibition, % (concentration not given with the values); C. albicans CaCi-2 (fluconazole-resistant clinical isolate) + fluconazole, Alamar Blue growth, 48 h; hit rate 0.57% among 300,000;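 active means most replicates above 75%; inconclusive means exactly half above 75%; inactive means most below 75%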;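 further: all wells also contain fluconazole at 8 µg/ml as a sub-toxic cotreatment; 0% = median of DMSO wells and 100% = median of geldanamycin control wells; wells of about 8 µL received 7.5 nL stock; the first replicate is given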
T cruzi repl = blocks replication of Trypanosoma cruzi; T. cruzi beta-gal in NIH3T3, luminescence, 90 h; inhibition, % (concentration not given with the values); hit rate 1.4% among 300,000;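 active means mean inhibition across valid replicates above about 55%, limit read from the data; inconclusive means mean below that limit but half or more replicates reach it; inactive means mean below it, under half of replicates reach it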;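 further: signal also drops with host cell toxicity which is not excluded here; 0% = plate median of DMSO wells and 100% = zero luminescence signal; higher percent means less beta-gal luminescence so fewer parasites; stock transfer was 50 nL into about 50 µL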
RanGTP-Impb inh = disruptors of Ran-importin-beta complex formation – biochemical, FRET, CFP-Ran, YFP-importin-beta, homogeneous, primary screen; cell-free CFP-Ran/YFP-importin-beta FRET ratio; inhibition, % (concentration not given with the values); hit rate 1.1% among 300,000;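 active means most replicates above 15%; inconclusive means exactly half above 15%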;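 further: 0% = DMSO wells and 100% = Ran loaded with GDP instead of GTP; wells of about 40 µL received 100 nL stock; the first replicate is given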
Ecoli rRNA inh OD600 = further read-out of Ecoli rRNA inh, marked with its call; OD600 change, %; measured here: OD600 growth;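 optical density of the mix in the first replicate; 0 = DMSO median and -100 = no signal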
Ecoli rRNA inh RFP = second read-out of Ecoli rRNA inh, no call of its own (marks repeat the call); RFP signal change, %; measured here: RFP humanized mutant strains;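 first replicate; 0 = DMSO median and -100 = no signal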
Starred values were filed as active, the others as inactive; ? = inconclusive; . = no result given.

SMILES	Beta apoptosis	AF4-AF9 inh	A1 inh	Vif A3G	Ecoli rRNA inh	Ecoli rRNA inh OD600	Ecoli rRNA inh RFP	Calb FLC	T cruzi repl	RanGTP-Impb inh
O=C(O)c1cc2nccc(-c3ccco3)n2n1	-4	-2.9	0.6	17%	13	0	-4.0	-8	-8	?
CCOc1ccc(CNC(=O)c2ccc(Sc3ccc(C)cc3)c(NC(C)=O)c2)cc1	.	.	-0.9	-5%	.	.	.	3	1	-2.4
Cc1ncn(C23CC4CC(CC(C4)C2)C3)n1	0	-4.0	1.5	3%	26	14	-5.1	1	-6	-4.8
Cn1c2ccccc2c(=O)c2cc(C#CC3=CCCCC3)ccc21	3	-6.4	-12	.	3	-12	-9.6	.	.	.
O=C(Nc1cccc(Cl)c1)C1C2CCC3C(CCC21)C3(Cl)Cl (stereo unspecified)	6	.	-0.9	.	.	.	.	-15	44	-1.4
N#Cc1c(Nc2ccc(Cl)cc2)s[nH]c1=O	6	-4.4	-6.3	-5%	.	.	.	-12	-17	2.4
CCOn1c(=O)c(=O)n(O)c2ccccc21	-4	1.0	-0.3	-1%	6	6	-1.1	48	-6	4.3
CC(=O)Nc1ccccc1NC(=O)C/C(C)=N/NC(=O)Cc1cccc2ccccc12	0	-2.1	1.9	.	4	1	1.5	5	-3	6.2
CCCOc1ccc(-c2nc(OCC)c3ccccc3n2)cc1	5	.	0.1	-3%	.	.	.	-2	-8	2.8
CC(=O)c1cccc(NC(=O)NC2CCCc3ccccc32)c1 (stereo unspecified)	-1	-0.8	0.0	-13%	16	6	0.2	25	12	0.7
O=C1COc2ccc(C(=O)COC(=O)CCc3ccc(S(=O)(=O)N4CCOCC4)cc3)cc2N1	-6	.	0.4	11%	.	.	.	-8	2	?
CC(=O)OCC1OC(OCc2cn(C[C@H]3CC[C@H](Cn4cc(COC5OC(COC(C)=O)C(OC(C)=O)C(OC(C)=O)C5OC(C)=O)nn4)O3)nn2)C(OC(C)=O)C(OC(C)=O)C1OC(C)=O (stereo partly specified)	-9	-2.3	-0.4	.	4	21	8.0	2	-12	9.9
COCCn1c(-c2ccccc2)cnc1N	1	.	-0.7	0%	.	.	.	-2	6	1.0
CCCCN1C(=O)C(=O)N(CC(=O)c2cc(C)n(-c3cc(C)on3)c2C)C1=O	-6	-8.4	-0.4	2%	11	-13	-4.2	.	.	.
Cc1ccc(C23CC4CC(CC(CC(=O)NC(C)(C)CO)(C4)C2)C3)cc1	6	-5.9	1.0	-6%	2	20	1.3	-9	7	6.4

Structural class, those above with a carbonyl joined to an NH by a bond outside any ring.
SMILES	Beta apoptosis	AF4-AF9 inh	A1 inh	Vif A3G	Ecoli rRNA inh	Ecoli rRNA inh OD600	Ecoli rRNA inh RFP	Calb FLC	T cruzi repl	RanGTP-Impb inh
CCOc1ccc(CNC(=O)c2ccc(Sc3ccc(C)cc3)c(NC(C)=O)c2)cc1	.	.	-0.9	-5%	.	.	.	3	1	-2.4
O=C(Nc1cccc(Cl)c1)C1C2CCC3C(CCC21)C3(Cl)Cl (stereo unspecified)	6	.	-0.9	.	.	.	.	-15	44	-1.4
CC(=O)Nc1ccccc1NC(=O)C/C(C)=N/NC(=O)Cc1cccc2ccccc12	0	-2.1	1.9	.	4	1	1.5	5	-3	6.2
CC(=O)c1cccc(NC(=O)NC2CCCc3ccccc32)c1 (stereo unspecified)	-1	-0.8	0.0	-13%	16	6	0.2	25	12	0.7
Cc1ccc(C23CC4CC(CC(CC(=O)NC(C)(C)CO)(C4)C2)C3)cc1	6	-5.9	1.0	-6%	2	20	1.3	-9	7	6.4

Further records.
SMILES	Beta apoptosis	AF4-AF9 inh	A1 inh	Vif A3G	Ecoli rRNA inh	Ecoli rRNA inh OD600	Ecoli rRNA inh RFP	Calb FLC	T cruzi repl	RanGTP-Impb inh
CCc1ccc(NS(=O)(=O)c2cc3c4c(c2)CCN4C(=O)CC3)cc1	2	-3.0	-0.5	-10%	-8	-20	-5.2	-4	2	-1.9
CC1CCCCN1C(=O)Cn1c(=O)n(C2CCCCC2)c(=O)c2ccccc21 (stereo unspecified)	-1	.	-1.1	-5%	.	.	.	4	-39	2.5
O=C(Cc1ccc2c(c1)OCCO2)c1c(O)cc(O)cc1O	-7	-5.5	-1.0	1%	-4	-7	2.3	5	3	0.0
COc1cc(O)c(C(CCN2CCCC(C)C2)c2cc(OC)c(OC)c(OC)c2)c(OC)c1 (stereo unspecified)	-9	2.4	-0.8	0%	2	10	-3.2	-3	-8	9.2
COC(=O)c1ccc(COc2ccc(/C=N/O)cc2)o1	0	1.1	0.6	?	-10	1	-0.1	-3	-16	2.3
CC[C@@H]1CC=C[C@H]2[C@H]1C(=O)N(Cc1ccccc1)[C@H]2c1ccc(OC)c(Cl)c1	4	1.8	-0.7	4%	3	-4	-1.6	-10	24	0.5
CC1(C)CC(=O)C(C=NCCN2CCN(CCCCS(=O)(=O)O)CC2)=C(O)C1	-4	.	-0.7	0%	.	.	.	-11	-3	-1.1
COc1cc(CCC(=O)OCC(=O)Nc2ccccc2OC(F)F)cc(OC)c1OC	-2	-1.9	0.5	-13%	-7	-18	-1.6	-5	-9	-1.0
Nn1c(SCc2ccc(Br)cc2)nnc1-c1ccncc1	5	-2.1	0.1	-27%	7	5	-1.9	-25	3	1.3
O=C(c1ccc(Cl)cc1)N1CCC(O)(CSc2ccc(Cl)cc2Cl)CC1	-2	.	1.6	-3%	.	.	.	4	32	-1.1
O=C1NN(c2ccccc2)C(=O)/C1=C\c1cccc(OC(=O)c2cccs2)c1	-3	.	1.0	9%	.	.	.	6	-12	-2.2
CCOc1ccc(C(Nc2ccc(C)cc2)P2(=O)OCCC(C)O2)cc1 (stereo unspecified)	0	.	0.7	-4%	.	.	.	-1	5	-3.4
O=C(C[n+]1cc(-c2ccccc2)n2c1CCC2)Nc1nc(-c2ccc(F)cc2)cs1	7	.	1.4	.	.	.	.	17	-11	5.7
CCN(CC)CCN(C(=O)c1ccc(Br)s1)c1nc2cc3c(cc2s1)OCO3	-2	-0.7	0.8	-1%	3	5	4.5	-5	29	2.4
CCOc1ccc(OCCC(=O)N2CCN(S(=O)(=O)c3ccc(OCC)cc3)CC2)cc1	-2	-3.4	0.5	.	7	0	0.5	-3	10	2.3
CCOc1cc(/C=C2\SC(=S)N(C(C(=O)O)c3ccccc3)C2=O)ccc1O (stereo unspecified)	7	0.9	-0.6	-3%	-52	-77	11	-2	-5	-19
S=C(NCCc1ccccc1)NCC1CCCO1 (stereo unspecified)	3	-7.9	2.0	4%	9	5	-3.5	-14	-20	2.7
Cc1ccccc1-c1nn[nH]n1	0	.	0.8	19%	.	.	.	-2	-21	?
Cc1cc(NC(=O)c2cc(C(C)C)on2)no1	-2	.	-2.0	?	.	.	.	6	-10	-4.6
CS(=O)(=O)N(CC(=O)Nc1ccccc1C(=O)N1CCOCC1)c1ccc(Cl)cc1	-5	-11	0.7	3%	4	3	-4.5	-3	1	?
Cc1cc(=O)oc2cc(NC(=O)c3cc(F)ccc3F)ccc12	3	-0.6	-1.5	.	13	17	0.3	.	.	.
COc1ccc(CN(CC2CCCO2)C(=O)c2cc3ccccc3oc2=O)cc1 (stereo unspecified)	-4	-0.4	0.1	-2%	-3	-4	1.4	-21	0	4.3
CCN1CCN(c2cc3nc(C)n(Cc4ccccc4)c(=O)c3cc2NC(=O)c2ccccc2F)CC1	33	-1.4	-0.6	0%	3	0	2.2	3	50	-5.8
COc1c(C)cc(Br)cc1C(=O)Nc1cccc(-c2nc3ncccc3o2)c1	6	-0.9	0.2	-8%	3	13	0.1	-9	20	3.2
Cc1c(C(=O)N(Cc2nccn2C)C(C)C)oc2c(F)cccc12	-9	-1.1	0.0	.	3	3	0.2	-15	-23	1.5
O=C(CNC(=S)N(CCCN1CCOCC1)Cc1cccs1)NC1CCCC1	-10	0.4	-0.9	-5%	23	7	0.2	3	0	-1.6
CC(C)(C)N1OC2CC1c1nc3ccccc3n1C2 (stereo unspecified)	1	0.7	1.0	16%	0	0	-9.4	0	-19	-7.7

An excerpt; rates above refer to the full screens.
